Hsc70: Hsc70 inhibitors, probe displacement, primary screen, biochemical, fluorescence polarization (AID 568); Heat shock cognate 71 kDa protein (Homo sapiens); Hsc70 fluorescence polarization, probe displacement; higher % means a stronger effect; strong numbers were not always called active; displacement, % at 20 µM; hits with a dose series show IC50 in µM; 83,000 tested, under 10 active;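 active means displacement above 50% without optical interference and an IC50 on retest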;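 further: ATPase domain with a fluorescein-tagged ATP probe; 0% = vehicle and 100% = excess ADP; read after one hour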
MT1-MMP promoter: inhibitors of MT1-MMP promoter transcription, cell-based, luciferase reporter, luminescence (AID 618) | MT1-MMP promoter luciferase reporter cells, luminescence | calls from a first round at 10 µM; hits with a dose series show EC50 in µM | 0.62% of 87,000 active;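 active means over half of the reporter light lost at 10 µM or EC50 under 50 µM; inactive means the rest and hits that failed the dose series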;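 further: actives suppress MT1-MMP promoter-driven transcription so potencies describe inhibitors; HT1080 fibrosarcoma cells; overnight exposure; toxic or luciferase-blocking compounds were not removed from the actives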
WNV protease inh: inhibitors of WNV NS2B-NS3 protease, primary screen, biochemical, fluorogenic substrate; Genome polyprotein (West Nile virus), P06935; fluorogenic substrate Ex360/Em465; hits give low values; z-score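 (tested at a level between 10 and 100 µM)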; 0.18% of 65,000 active; AID 577, 2007;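 active means z-score at -3 or under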;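 further: score is relative to mean and spread of the compound wells of a plate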
Target sequence (P06935 1371-1501 limits assumed): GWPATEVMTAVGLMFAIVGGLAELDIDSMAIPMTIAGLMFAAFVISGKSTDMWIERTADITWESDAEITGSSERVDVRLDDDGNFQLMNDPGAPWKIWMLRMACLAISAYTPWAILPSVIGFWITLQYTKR
Target sequence (P06935 1502-1679 limits assumed): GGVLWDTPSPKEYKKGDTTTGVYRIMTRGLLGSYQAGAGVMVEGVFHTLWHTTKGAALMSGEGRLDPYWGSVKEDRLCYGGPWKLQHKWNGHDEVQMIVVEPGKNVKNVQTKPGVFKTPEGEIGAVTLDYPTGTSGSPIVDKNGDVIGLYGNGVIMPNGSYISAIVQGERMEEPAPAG
An asterisk follows results filed as active; i = inactive; / = not tested or not shown. This is a subset (hit frequency here may not be typical).

Compound | Hsc70 | MT1-MMP promoter | WNV protease inh
Cc1ncc([N+](=O)[O-])n1CCO | 5.8% | i | 0.16
CCOc1cc(C(=O)NC)cc(OCC)c1OCC | 3.1% | i | 0.28
CC(=O)c1cccc(S(=O)(=O)N2CCC(n3nnc4cc(F)ccc43)CC2)c1 | 3.0% | i | 0.04
O=C(CSc1ncnc2c1oc1ccccc12)NCc1ccco1 | 0.4% | i | -0.15
CCOC(=O)N1CCN(C2CC(=O)N(c3ccc(F)cc3)C2=O)CC1 (stereo not given) | -1.5% | i | -0.19
Cc1cc(-c2ccc(F)cc2)nc2cc(C(N)=O)nn12 | 3.3% | i | 1
CC(=O)Nc1ccc(S(=O)(=O)N[C@@H](C)C(=O)Nc2ccc(N3CCOCC3)cc2)cc1 | 6.3% | i | /
CCCC(=O)Nc1c(-c2cccs2)c(=O)c2ccccc2n1CC | 1.7% | i | /
O=C(c1ccc2nc(N3CCCCC3)sc2c1)N1CCN(Cc2ccc3c(c2)OCO3)CC1 | 1.0% | i | 0.32
CCC(C)NS(=O)(=O)c1ccc(OCC(=O)NCc2ccc3c(c2)OCO3)cc1 (stereo not given) | -6.3% | i | 0.31
O=C(c1ccccc1)c1cc[n+]([O-])cc1 | -6.4% | i | /
O=C(O)CC(Cn1cnnn1)c1ccccc1 (stereo not given) | -0.3% | i | -0.85

Next section.
Compound | Hsc70 | MT1-MMP promoter | WNV protease inh
C=CCN(C(=O)Cn1c(C(=O)OC)cc2oc(C)cc21)c1ccccc1 | 2.8% | i | -0.63
COC(=O)c1sc2nc(N3CCCCC3)c3c(c2c1N)CCCC3 | 7.1% | i | /
Cc1ccc(-n2c(SCC(=O)NC3CCCCC3)nc3c(c2=O)SCC3)cc1 | 2.4% | i | 0.43
COc1ccc(S(=O)(=O)NCCSCc2cccs2)cc1 | -2.9% | i | 0.45
O=C1c2ccccc2-c2ncnc3cccc1c23 | 8.7% | i | 0.29
CCN(CC)CCOC(=O)c1cccc(OC)c1 | 3.2% | i | -0.04
CCOc1ccccc1C1CC(=O)NC2=C1C(=O)CC(C)(C)C2 (stereo not given) | 1.6% | i | -1.1
O=c1[nH]c(=O)n(C2CCCO2)cc1Br (stereo not given) | 1.1% | i | -1.2
CC(=O)Nc1cccc(NC(=O)C2CCCN2C(=O)Nc2cccc(F)c2)c1 (stereo not given) | 3.2% | i | 1.9
O=C1CC(N2CCN(c3ccc(S(=O)(=O)N4CCCC4)cc3)CC2)C(=O)N1c1ccc(F)cc1 (stereo not given) | 9.0% | i | 0.43
CCN(CC)C(=O)CSc1nnc(CCN)o1 | 0.7% | i | -0.92
O=C(NCc1ccco1)C(C(=O)c1ccc(F)cc1)n1ccccc1=O (stereo not given) | 7.7% | i | -0.56

The list goes on (2 carried over from the part before).
Compound | Hsc70 | MT1-MMP promoter | WNV protease inh
CCN(CC)C(=O)CSc1nnc(CCN)o1 | 0.7% | i | -0.92
O=C(NCc1ccco1)C(C(=O)c1ccc(F)cc1)n1ccccc1=O (stereo not given) | 7.7% | i | -0.56
O=C1C2C3C=CC(C3)C2C(=O)N1c1ccncc1 (stereo not given) | -0.3% | i | 0.13
CCC(=O)Nc1cc2c(C)cc(=O)oc2cc1C | 1.6% | i | /
COc1cc(C(=O)NCCC(=O)NCCN2CCOCC2)cc(OC)c1OC | -0.2% | i | 0.32
Cc1cccc(C(=O)N=c2c(C#N)cc3c(=O)n4cccc(C)c4nc3n2Cc2ccco2)c1 | 5.3% | i | /
O=C(OCC(O)C(O)COC(=O)c1ccccc1)c1ccccc1 (stereo not given) | -3.6% | i | 0.68
Cc1ccc(C(C(=O)NC2CCCCC2)N(C(=O)c2csnn2)C2CCCC2)o1 (stereo not given) | 4.1% | i | -0.25
Cc1cc(C)nc(NS(=O)(=O)c2ccc(NC(=O)CN3C(=O)c4ccccc4C3=O)cc2)n1 | 3.6% | i | /
CCOc1cccc(OCCCNCCCOC)c1 | -0.2% | i | -0.75
COc1ccc(CCNC(=O)c2c(C)noc2C)cc1 | -6.6% | i | /
O=C(c1ccncc1)c1nccn1-c1ccccn1 | -1.3% | i | -0.7
Cc1ccc(F)cc1NC(=O)C1CCN(c2cnccn2)CC1 | -2.5% | i | -0.72
Cc1nn(C)cc1CN(C)C(=O)c1cc2nc(-c3ccco3)cc(C(F)(F)F)n2n1 | -0.7% | i | 0.02

2 of these compounds, set out differently.
Sequence of screens – Hsc70 | MT1-MMP promoter | WNV protease inh
- CCC(=O)Nc1cc2c(C)cc(=O)oc2cc1C
 : 1.6% | i | /
- COc1cc(C(=O)NCCC(=O)NCCN2CCOCC2)cc(OC)c1OC
 : -0.2% | i | 0.32

Additional structures
Compound | Hsc70 | MT1-MMP promoter | WNV protease inh
Cc1ccc(-n2nnnc2SCn2nnc3ccccc3c2=O)c(C)c1 | -1.4% | i | /
COC(=O)CCCCCNc1ccc(C(=O)OC)cc1N | -11% | i | 0.19
COCCCNCCOc1cc(C(C)C)ccc1C | 2.0% | i | 1.6
COc1cccc(Nc2cc(C)nc3ccccc23)c1 | 3.1% | i | -1.2
CC(=O)Oc1ccc(-c2ccc(C(=O)O)cc2)cc1 | 4.4% | i | -1.4
Cc1ccc(Cl)cc1N1CCN(C(=O)c2cc3c(=O)n(C)c4ccccc4c3n2C)CC1 | 4.8% | i | 0.36
CCC(=O)Nc1nc(N)n(-c2ccccc2)n1 | 2.4% | i | /
COc1ccc(C(=O)NNC(=O)c2cnccn2)cc1[N+](=O)[O-] | -1.2% | i | /
COc1cc(C2NC(=O)NC(C)=C2C(=O)OC(C)(C)C)ccc1OCC(N)=O (stereo not given) | 0.5% | i | -0.2
CCOc1ccc(C2C(C#N)=C(N)Oc3cc(C)n(Cc4ccco4)c(=O)c32)cc1OC (stereo not given) | -4.1% | i | -0.04
CCN1CCCC1CNC(=O)c1ccccc1Cl (stereo not given) | 6.0% | i | /
Cc1cc(C)c2cc3c(ccn3C3OC[C@H](O)[C@H](O)[C@H]3O)cc2n1 (stereo not given in full) | 58% | i | -0.87

3 compounds picked at random from the list so far, as already listed:
Compound | Hsc70 | MT1-MMP promoter | WNV protease inh
COCCCNCCOc1cc(C(C)C)ccc1C | 2.0% | i | 1.6
CCOc1ccc(C2C(C#N)=C(N)Oc3cc(C)n(Cc4ccco4)c(=O)c32)cc1OC (stereo not given) | -4.1% | i | -0.04
CCN1CCCC1CNC(=O)c1ccccc1Cl (stereo not given) | 6.0% | i | /

Additional compounds follow:
Compound | Hsc70 | MT1-MMP promoter | WNV protease inh
Nc1ccc(O)cc1C(=O)OCC(=O)C12CC3CC(CC(C3)C1)C2 | -0.2% | i | 0.32
c1nnc(NC2=NCCCCC2)s1 | 0.1% | i | 0.49
COc1cccc(CNc2ccc3c(c2)CCC3)c1 | 0.1% | i | /
Cc1nn(CC(=O)Nc2ccccc2)c(=O)c2ccccc12 | -0.3% | i | -0.73
CNC(=O)NC(=O)CSc1ccc(NC(C)=O)cc1 | 2.9% | i | -0.94
[O-][N+]12CC[N+]([O-])(CC1)c1ccccc12 | 1.0% | i | 0.12
CN(C)S(=O)(=O)c1ccc(C(=O)OCC(=O)c2ccc(OC(F)F)cc2OC(F)F)cc1 | -4.0% | i | 0.36
Cn1nc(-c2ccc(Cl)cc2)c2cc(C(=O)NCCCN3CCOCC3)sc21 | 5.1% | i | -0.95
Cc1ccc2cc(CN(CC(C)C)C(=O)C3CCCO3)c(=O)[nH]c2c1 (stereo not given) | -1.2% | i | -0.24
Cc1ccc(C(C)C)c(OCC(O)CN2CCN(CCO)CC2)c1 (stereo not given) | -2.2% | i | /
COc1ccccc1/C=c1\sc2nc(-c3ccncc3)nn2c1=O | -5.4% | i | 0.61
CCCS/C(N)=N/N=C/c1cc(C)ccc1O | 0.5% | i | /

Other records follow.
Compound | Hsc70 | MT1-MMP promoter | WNV protease inh
CCOC(=O)c1oc2cc(C)cc(O)c2c(=O)c1-c1csc(C)n1 | 7.2% | i | /
Clc1c(CSc2nc3ccccc3o2)nc2ccccn12 | -0.6% | 12µM* | -1.1
Cc1ccc(S(=O)(=O)/N=C(\CN2CCCCC2)N2CCOCC2)cc1 | 0.5% | i | -0.42
O=c1c2ccccc2oc2ncccc12 | -10% | i | -0.77
CCC(CC)C(=O)Nc1cc(=O)n(C)c(=O)n1C | 2.5% | i | -0.3
CC1CCc2cc(F)ccc2N1C(=O)c1ccc2c(c1)OCO2 (stereo not given) | 1.1% | i | -0.31
Cc1nc(NS(=O)(=O)c2cccs2)c2c3c(sc2n1)CCC3 | 2.1% | i | -0.13
CC(C)(C)n1nnnc1CN(Cc1ccc(F)cc1)Cc1ccco1 | -1.4% | i | /
CCC(C)(C)NC(=O)C(c1ccco1)N(C(=O)Cn1nnc2ccccc21)c1ccc2c(c1)OCO2 (stereo not given) | -6.3% | i | -0.97
COc1ccc(NC(=O)NCCN2CCc3ccccc3C2)cc1 | 1.8% | i | -1
COc1ccc(OC)c(NC(=O)C2CC(C)=C(C)CC2C(=O)O)c1 (stereo not given) | 2.2% | i | 0.49
Nc1nnc(SCc2ccccc2Cl)s1 | -8.7% | i | 1.7

Remaining list, next part.
Compound | Hsc70 | MT1-MMP promoter | WNV protease inh
CCCCOC(=O)C(C)c1c(C)[nH]c(=S)[nH]c1=O (stereo not given) | -1.0% | i | -0.46
CCn1cc(C(=O)NCc2cccc(F)c2)c(=O)c2cc(F)c(N3CCN(C(=O)c4ccco4)CC3)cc21 | -0.2% | i | /
Cc1ccc(CSc2nnnn2C)cc1 | -9.2% | i | -0.44
NC(=O)C1(N2CCCCC2)CCN(C(=O)c2ccc(C#CC3(O)CCCCC3)cc2)CC1 | 3.5% | i | /
CCCNC(=O)CS(=O)Cc1nc(-c2cccc(OC)c2)oc1C (stereo not given) | 4.9% | i | -0.75
COc1cc(-n2c(C)nc3cc(C(=O)N4CCOCC4)ccc32)cc(OC)c1OC | 5.2% | i | -1
C=CCSc1nc2c(c(=O)[nH]c(=O)n2C)n1CC | -6.1% | i | 0.33
Cc1c(NC(=O)c2ccc3c(c2)OCO3)cccc1-c1nc2ccccc2o1 | 2.8% | i | -1.1
CNS(=O)(=O)c1cccc2nsnc12 | -5.6% | i | -1.6
Cc1cc2oc3c(c(=O)c2cc1C)C(c1ccc(C(C)C)cc1)N(CCCN1CCOCC1)C3=O (stereo not given) | 3.5% | i | -0.98
CCOc1ccc(C2C(=O)N(C3CCCCC3)CC(=O)N2CC2CCCO2)cc1OC (stereo not given) | -5.4% | i | -1.4
Cc1ccc(C(C)n2cc(C(=O)NCCN3CCN(C)CC3)nn2)cc1 (stereo not given) | -0.6% | i | -0.51

Continued:
Compound | Hsc70 | MT1-MMP promoter | WNV protease inh
COc1ccc2c(CC(=O)OCC(=O)c3ccc(F)cc3)coc2c1 | 0.5% | i | -1.8
CCOC(=O)c1cnc(SCC(=O)c2ccc3c(c2)OCCO3)nc1N | 3.0% | i | -0.15
COC(=O)c1c(-c2ccc(C)cc2)csc1N | 0.4% | i | 0.19
Cc1ccc(S(=O)(=O)N2CCN(CCO)CC2)cc1-c1nnc2c3ccccc3c(C)nn12 | 0.4% | i | -0.23
C=CCn1c(SCC(=O)Nc2nc(C)cs2)nnc1C(NC(=O)c1ccccc1)C(C)C (stereo not given) | 1.7% | i | /
Cc1onc(-c2ccccc2Cl)c1C(=O)Nc1cnn(Cc2ccccc2)c1 | 5.8% | i | -0.27
O=C(NC1CC2CCCC(C1)N2C(=O)NCc1ccccc1)C1CC1 (stereo not given) | -0.8% | i | 0.14
Cc1[nH]c2ccc(-c3n[nH]c(=S)n3C)cc2c1C | 6.7% | i | 1.4
NS(=O)(=O)c1ccc(NC(=O)CSc2ccccn2)cc1 | -4.6% | i | 0.48
NC(=O)CN1CCOCCN(CC(N)=O)CCOCC1 | -2.6% | i | 0.36
Cc1cc(C)c(S(=O)(=O)n2ccc3ccccc32)c(C)c1 | 1.6% | i | /
O=c1[nH]c(C2CCCN(S(=O)(=O)c3ccc(F)cc3)C2)nc2c1nnn2Cc1ccccc1 (stereo not given) | -2.2% | i | -1.2

More compounds follow:
Compound | Hsc70 | MT1-MMP promoter | WNV protease inh
NS(=O)(=O)c1ccc(CCNC2CC(=O)N(Cc3ccccc3)C2=O)cc1 (stereo not given) | 11% | i | 0.36
Cc1occc1C(=O)NCCc1ccc(Cl)cc1 | 3.0% | i | /
N#Cc1cccc(NC(=O)c2nc(-c3ccccc3)n(-c3ccccc3)n2)c1 | 1.9% | i | 1.2
COc1cccc(NC(=O)N2CCN(Cc3nc4ccccc4c(=O)[nH]3)CC2)c1 | -0.3% | i | -0.26
O=C(NCc1ccco1)c1ccc(COCC(F)(F)C(F)F)cc1 | 1.2% | i | -1.1
On1c(-c2ccco2)nc2c1CCc1nonc1-2 | -12% | i | -1
COc1ccc(-n2nc(C(=O)Nc3ccc4c(c3)OCO4)c3ccccc3c2=O)cc1 | -5.0% | i | 0.99
CCCNC(=O)Nc1cc(C)on1 | 1.0% | i | 0.38
Cc1cc(-c2ccccc2)nc2cc(C(N)=O)nn12 | -13% | i | -0.42
COc1cc(Cl)c(C)cc1NC(=O)COC(=O)c1cnc(C)cn1 | 2.2% | i | 0.8

Screening results: PubChem, several laboratories
